Bioassay records from PubChem.
rRNA inh HTS: inhibits bacterial ribosomal RNA function over humanized ribosomes. GFP signal change (wild-type ribosome), % (concentration not given with the values). AID 720706. hit rate 1.6% among 350,000. E. coli WT GFP vs humanized-ribosome RFP mutants, fluorescence, 24 h; hits give low values; DMSO median 0, no signal -100;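 active = significant combined selectivity score with lowered wild-type GFP, culture density cut under 30%, mutant RFP and density less affected; inactive = any of these conditions unmet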; also: one replicate is shown; some compounds called inactive have numbers as strong as hits
rRNA inh HTS OD600: further read-out of rRNA inh HTS, marked with its call; OD600 change, %; measured here: OD600 growth;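 optical density of the mix in the first replicate; 0 = DMSO median and -100 = no signal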
rRNA inh HTS RFP: second read-out of rRNA inh HTS, no call of its own (marks repeat the call); RFP signal change, %; measured here: RFP humanized mutant strains;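 first replicate; 0 = DMSO median and -100 = no signal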
The depositor's hits bear a star.

Preview:
Every second line gives: rRNA inh HTS | rRNA inh HTS OD600 | rRNA inh HTS RFP
C[C@@H]1CN([C@@H](C)CO)C(=O)c2cc(-c3ccccc3)cnc2O[C@@H]1CN(C)C(=O)Cc1ccccc1
→ -4 | -4 | -1.0
COc1ccc(C#Cc2ccc3c(c2)[C@@H]2[C@@H](CCN2C(=O)C2CCCCC2)[C@H](CO)N3)cc1
→ 5 | 13 | -1.6
O=C(NC[C@H]1N[C@H](CO)[C@@H]1c1ccc(-c2ccccc2)cc1)c1cccc(F)c1
→ -57 | -81 | -11

All compounds of this part, previewed entries included:
Every second line gives: rRNA inh HTS | rRNA inh HTS OD600 | rRNA inh HTS RFP
C[C@@H]1CN([C@@H](C)CO)C(=O)c2cc(-c3ccccc3)cnc2O[C@@H]1CN(C)C(=O)Cc1ccccc1
→ -4 | -4 | -1.0
COc1ccc(C#Cc2ccc3c(c2)[C@@H]2[C@@H](CCN2C(=O)C2CCCCC2)[C@H](CO)N3)cc1
→ 5 | 13 | -1.6
O=C(NC[C@H]1N[C@H](CO)[C@@H]1c1ccc(-c2ccccc2)cc1)c1cccc(F)c1
→ -57 | -81 | -11
CC[C@@H]1C/C=C\C[C@@H](c2ccc(OC)cc2OC)NC(=O)[C@@H](C)CC(=O)N1
→ 4 | 13 | -3.9
O=C(C[C@@H]1C=C[C@@H](NC(=O)Nc2ccccc2F)[C@@H](CO)O1)NCc1ccccc1
→ -3 | 3 | -0.9
CCc1nc(N2[C@H](C#N)[C@@H](c3ccccc3-c3ccccc3C)[C@@H]2CO)sc1C
→ -6 | -7 | -0.5
O=C(c1cccnc1)N1CC(=O)N2[C@H](C1)[C@H](c1ccc(-c3cccnc3)cc1)[C@@H]2CO
→ 1 | 9 | -4.0
CO[C@@H]1CN(C)C(=O)c2cc(NC(=O)c3ccc(F)cc3)ccc2OC[C@@H](C)N(C(=O)CN(C)C)C[C@@H]1C
→ 0 | -6 | -0.9
O=C1CCCCn2cc(nn2)COC[C@H](c2ccccc2)N1
→ 4 | -2 | 0.8
COc1ccccc1CN(C)C[C@H]1OCc2ccccc2-c2ccccc2C(=O)N([C@@H](C)CO)C[C@H]1C
→ -4 | -7 | -5.3
CCCN(C)C[C@@H]1Oc2cc(C3=CCCC3)ccc2S(=O)(=O)N([C@@H](C)CO)C[C@H]1C
→ 3 | -6 | 2.7
C[C@@H]1CN([C@H](C)CO)C(=O)Cc2cc(NC(=O)Cn3cnnn3)ccc2O[C@@H]1CN(C)Cc1ccc(C(F)(F)F)cc1
→ 0 | 1 | -0.1
CCCC#Cc1ccc([C@@H]2[C@H](CO)N3C(=O)CN(C(=O)c4cccnc4)C[C@@H]23)cc1
→ 4 | 10 | 0.2
CN(C)C(=O)C[C@@H]1CC[C@@H]2[C@@H](COc3ccc(NC(=O)C4CCCC4)cc3C(=O)N2C)O1
→ 3 | 16 | 2.2
C[C@@H]1CCCCO[C@H](CN(C)Cc2ccc3c(c2)OCO3)[C@@H](C)CN([C@@H](C)CO)C(=O)c2cc(NS(=O)(=O)c3ccc(Cl)cc3)ccc2O1
→ -28 | -63 | 11
CCCC(=O)Nc1ccc2c(c1)C(=O)N(C)C[C@@H](OC)[C@@H](C)CN(Cc1cncnc1)[C@@H](C)CO2
→ -1 | 2 | 1.6
CC(=O)N(C)C[C@@H]1[C@@H](c2ccc(C#Cc3ccccn3)cc2)[C@@H](CO)N1C(C)=O
→ 4 | 9 | -0.6
CN1c2ccc(-c3ccc(F)cc3)cc2[C@@H]2[C@@H](CCN2S(=O)(=O)c2ccc(F)cc2)[C@H]1CO
→ 0 | 2 | 0.1
COc1ccccc1CNC(=O)C[C@@H]1C=C[C@@H](NC(=O)CN(C)C)[C@H](CO)O1
→ 0 | 8 | -3.0
O=C(C[C@H]1C=C[C@H](NS(=O)(=O)c2ccccc2)[C@H](CO)O1)N1CCc2ccccc2C1
→ 0 | 3 | -3.2
C[C@H](CO)N1C[C@H](C)[C@@H](CN(C)Cc2cccnc2)Oc2cc(-c3ccccc3F)ccc2S1(=O)=O
→ -42 | -55 | 27
C[C@@H]1CN([C@H](C)CO)C(=O)Cc2cc(NC(=O)C3CC3)ccc2O[C@H]1CN(C)C(=O)Nc1ccc2c(c1)OCO2
→ 3 | 7 | -0.3
CN(C)C(=O)C[C@@H]1CC[C@H]2[C@H](COc3ccc(NC(=O)C4CCC4)cc3C(=O)N2C)O1
→ 4 | 7 | -1.6
C/C=C/c1ccc([C@H]2[C@@H](CO)N3C(=O)CN(C(=O)CC4CC4)C[C@@H]23)cc1
→ 2 | 0 | 1.3
CO[C@@H]1CN(C)C(=O)c2ccc(NS(C)(=O)=O)cc2OC[C@H](C)N(Cc2ccccc2)C[C@@H]1C
→ 2 | 2 | 1.0
O=C(NC1CCCC1)N1CC2(C1)[C@@H](c1ccccc1)[C@@H](CO)N2CC1CCCC1
→ -3 | -1 | 11
C[C@H]1COCn2nncc2CCCC(=O)N1
→ 3 | 8 | -1.8
Cc1noc(C)c1NC(=O)Nc1cccc2c1O[C@H](CN(C)C(=O)Nc1ccc(F)cc1)[C@@H](C)CN([C@H](C)CO)C2=O
→ 0 | 2 | -2.2
C[C@@H]1C(=O)N[C@@H](c2ccc(F)cc2)CC=CC[C@H](C)Oc2ccccc2C(=O)N1C (mixture of isomers)
→ -1 | 0 | 2.5
COc1ccc(S(=O)(=O)Nc2cccc3c2O[C@H](CN(C)Cc2ccc(C(=O)O)cc2)[C@H](C)CN([C@H](C)CO)C3=O)cc1
→ 7 | 4 | 2.3
CC(C)CC#Cc1ccc2c(c1)O[C@@H](CN(C)Cc1ccccc1)[C@H](C)CN([C@@H](C)CO)S2(=O)=O
→ -3 | -5 | 0.0
C/C=C/c1ccc([C@@H]2[C@@H](CN(CC)C(C)=O)N(Cc3cccnc3)[C@H]2CO)cc1
→ 1 | 7 | -2.6
C[C@@H]1CCCCO[C@H](CN(C)Cc2ccc3c(c2)OCO3)[C@H](C)CN([C@H](C)CO)C(=O)c2cc(NS(=O)(=O)c3ccc(Cl)cc3)ccc2O1
→ 1 | -11 | 2.7
CO[C@H]1CN(C)C(=O)c2cc(NC(=O)Nc3ccc(Cl)cc3)ccc2OC[C@@H](C)N(C)C[C@@H]1C
→ -1 | -4 | 1.0
CC(C)NC(=O)NCC[C@@H]1CC[C@@H](NS(=O)(=O)c2ccccc2)[C@H](CO)O1
→ 3 | 1 | -3.1
CCCC(=O)Nc1ccc2c(c1)C(=O)N(C)C[C@H](OC)[C@H](C)CN(Cc1ccc(F)cc1)[C@@H](C)CO2
→ -5 | -7 | -0.7
C[C@@H]1CN([C@@H](C)CO)C(=O)Cc2cc(NC(=O)NC3CCCCC3)ccc2O[C@@H]1CN(C)Cc1ccc(C(=O)Nc2ccccc2N)cc1
→ -8 | -8 | 6.1
CN(C)CC(=O)N[C@H]1CC[C@H](CCNC(=O)Nc2ccc(Cl)cc2)O[C@H]1CO
→ -42 | -64 | 18
CO[C@H]1CN(C)C(=O)c2cc(NC(=O)Cc3ccccc3)ccc2OC[C@@H](C)N(CC2CC2)C[C@@H]1C
→ 0 | -2 | 0.1
COCC(=O)Nc1ccc2c(c1)OC[C@@H](C)N(Cc1ccccc1OC)C[C@@H](C)[C@H](OC)CN(C)C2=O
→ 1 | 4 | -0.9
O=C(Nc1cccc(F)c1)N1CCCCN2[C@H](CO)[C@H](c3ccc(C#Cc4ccccc4)cc3)[C@@H]2C1
→ 7 | 30 | 0.0
CCCNC(=O)N1[C@H](CO)[C@H](c2ccc(-c3ccc(C#N)cc3)cc2)[C@@H]1CNC
→ -5 | -12 | 0.1
C[C@H]1CN([C@@H](C)CO)C(=O)c2cc(C#CC3CC3)cnc2O[C@H]1CN(C)C(=O)C1CCCCC1
→ 8 | 9 | 1.1
O=C(Nc1ccccc1)N1CCCCN2[C@@H](CO)[C@@H](c3ccc(C#Cc4cccnc4)cc3)[C@@H]2C1
→ 2 | 6 | 6.0
C[C@H]1CN([C@@H](C)CO)C(=O)c2cc(C#Cc3ccccn3)cnc2O[C@H]1CN(C)CC1CCCC1
→ 2 | 12 | 1.8
CCC(=O)N1CC(=O)N2[C@H](CO)[C@H](c3ccc(-c4ccc(C#N)cc4)cc3)[C@H]2C1
→ -2 | 6 | -0.2
C[C@@H]1CCn2cc(nn2)COC[C@H](c2ccccc2)NC1=O
→ -1 | 9 | -2.5
CC(=O)NC[C@H]1[C@@H](c2ccc(C#C[C@@H](C)O)cc2)[C@@H](CO)N1Cc1ccccn1
→ 2 | -1 | -1.7
C[C@@H]1CN([C@@H](C)CO)C(=O)c2cccc(NC(=O)Nc3ccc(C(F)(F)F)cc3)c2O[C@@H]1CN(C)S(=O)(=O)c1ccccc1
→ 0 | 1 | -1.3
CCN1CC(=O)N2[C@@H](CO)[C@H](c3ccc(Br)cc3)[C@@H]2C1
→ 7 | 13 | -1.8

(listing goes on)
Every second line gives: rRNA inh HTS | rRNA inh HTS OD600 | rRNA inh HTS RFP
CCC(=O)N1[C@H](CO)[C@@H](c2ccc(C3=CCCCC3)cc2)[C@@H]1CN(C)C(C)=O
→ 0 | -1 | -0.8
CC(C)[C@H]1C(=O)N[C@@H](c2ccc3c(c2)OCO3)CC=CC[C@H](C)Oc2ccccc2C(=O)N1C (mixture of isomers)
→ -3 | -20 | -2.2
COc1cccc(NC(=O)N2[C@H](CNC(C)C)[C@H](c3ccccc3)[C@@H]2CO)c1
→ 0 | -3 | 1.8
COc1ccc2c3c(n(C)c2c1)[C@H](CO)N(S(C)(=O)=O)CC31CCN(C(=O)CN(C)C)CC1
→ 1 | 8 | -1.0
COc1ccccc1NC(=O)N1CC(=O)N2[C@H](C1)[C@H](c1ccc(-c3ccc(C)cc3)cc1)[C@@H]2CO
→ 2 | -4 | 15
CCCN(C)C[C@H]1OCCCC[C@@H](C)Oc2ccc(NS(C)(=O)=O)cc2C(=O)N([C@H](C)CO)C[C@@H]1C
→ 4 | 1 | -1.0
CCCC#Cc1ccc([C@H]2[C@@H](CO)N(C(=O)C3CCC3)[C@H]2C#N)cc1
→ 1 | 0 | -1.3
O=C(C[C@H]1CC[C@@H](NC(=O)c2ccncc2)[C@@H](CO)O1)Nc1ccc(-c2ccccc2)cc1
→ -2 | -13 | -4.0
COCC(=O)N1CC(=O)N2[C@@H](CO)[C@@H](c3ccc(C#Cc4cccnc4)cc3)[C@@H]2C1
→ 1 | 2 | -2.9
O=C(c1cnccn1)N1CC(=O)N2[C@H](CO)[C@H](c3ccc(C#CC4CCCC4)cc3)[C@H]2C1
→ 2 | -2 | 1.8
O=C(C[C@H]1C=C[C@H](NC(=O)CN2CCOCC2)[C@H](CO)O1)NCCc1ccncc1
→ 0 | 1 | -0.6
C[C@H]1CN([C@@H](C)CO)C(=O)c2cc(NS(=O)(=O)c3ccccc3)ccc2O[C@H]1CN(C)C
→ -2 | 7 | 0.1
C[C@H](CO)N1C[C@H](C)[C@@H](CN(C)Cc2ccncc2)Oc2c(NC(=O)Cn3cnnn3)cccc2C1=O
→ -1 | 6 | 2.4
Cc1ccccc1-c1ccc([C@H]2[C@H]3CN(C(=O)c4ccccc4)CC(=O)N3[C@H]2CO)cc1
→ 2 | -14 | 5.6
O=C(Cc1ccncc1)Nc1ccc2c(c1)[C@@H]1C[C@@H](CC(=O)N3CCCCC3)O[C@H](CO)[C@@H]1O2
→ 2 | 0 | -0.3
O=C(Nc1ccc(F)cc1)N1C[C@H]2[C@@H](c3ccccc31)[C@H](CO)N2C(=O)c1ccncc1
→ 3 | 3 | 0.1
O=C(c1cccc(F)c1)N1CC[C@H]2[C@H](CO)Nc3ccc(-c4ccccc4)cc3[C@H]21
→ -12 | -57 | 29
CC(C)C#Cc1ccc([C@H]2[C@@H](CO)N3C(=O)CN(C(=O)c4ccc5c(c4)OCO5)C[C@@H]23)cc1
→ 2 | -6 | -1.9
O=C(CCN1CCCCC1)NCC[C@H]1CC[C@@H](NC(=O)C2CCCCC2)[C@@H](CO)O1
→ 4 | 0 | -2.3
COc1ccccc1-c1ccc2c(c1)O[C@@H](CN(C)CC1CC1)[C@@H](C)CN([C@H](C)CO)S2(=O)=O
→ -2 | -5 | 2.3
COc1ccccc1NC(=O)N1CC(=O)N2[C@H](CO)[C@H](c3ccc(C#CC4CC4)cc3)[C@H]2C1
→ 1 | 3 | -0.4
Cc1ccccc1-c1cnc2c(c1)C(=O)N([C@@H](C)CO)C[C@H](C)[C@H](CN(C)C(=O)CC1CC1)O2
→ -3 | 5 | -1.3
C[C@@H]1CN([C@H](C)CO)C(=O)c2cc(NC(=O)CCCN(C)C)ccc2O[C@@H](C)CCCCO[C@@H]1CN(C)C(=O)Nc1ccccc1
→ 0 | 1 | 0.5
O=C(C1CCCC1)N1CC(=O)N2[C@H](CO)[C@H](c3ccc(C#CCc4ccccc4)cc3)[C@H]2C1
→ -1 | 8 | 2.4
C[C@@H]1CN([C@H](C)CO)C(=O)c2ccccc2-c2ccccc2CO[C@@H]1CN(C)C(=O)[C@@H](Cc1ccccc1)N(C)C
→ -2 | 1 | 0.8
Cc1ccc(S(=O)(=O)N(C)C[C@H]2OCCCC[C@H](C)Oc3ccc(NC(=O)NC(C)C)cc3C(=O)N([C@@H](C)CO)C[C@H]2C)cc1
→ -4 | -10 | -0.6
C[C@@H]1CN([C@H](C)CO)C(=O)CCCn2cc(nn2)CO[C@@H]1CN(C)C(=O)CCC(F)(F)F
→ 3 | 3 | -1.0
CCN(C[C@H]1[C@@H](c2ccc(-c3ccccc3F)cc2)[C@@H](CO)N1C(C)=O)C(C)=O
→ -2 | -11 | -1.9

Some of the entries so far, tab-delimited.
smiles	rRNA inh HTS	rRNA inh HTS OD600	rRNA inh HTS RFP
Cc1ccccc1-c1cnc2c(c1)C(=O)N([C@@H](C)CO)C[C@H](C)[C@H](CN(C)C(=O)CC1CC1)O2	-3	5	-1.3
Cc1ccc(S(=O)(=O)N(C)C[C@H]2OCCCC[C@H](C)Oc3ccc(NC(=O)NC(C)C)cc3C(=O)N([C@@H](C)CO)C[C@H]2C)cc1	-4	-10	-0.6
C[C@@H]1CN([C@H](C)CO)C(=O)c2ccccc2-c2ccccc2CO[C@@H]1CN(C)C(=O)[C@@H](Cc1ccccc1)N(C)C	-2	1	0.8

Some of the compounds tested; rates above refer to the full screens.
